From PubChem
Methyltransferases: Primary Screen for Target Class Profiling of Small Molecule Inhibitors of Methyltransferases; purified enzyme, MTase-Glo SAH luminescence; hits give low values; calls only at 40 µM; actives 3.9% (n = 25,000); AID 1745853, 2022; active = -50% or lower on at least one of six enzymes; inconclusive = the cases between; inactive = as a rule above -30% on all six;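 further: enzymes were COMT GAMT GNMT HNMT NNMT and PNMT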
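Each enzyme was assayed with SAM and its substrate. SAH formation detected by MTase-Glo luminescence; single-point 40 uM screen[…].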
Calls only; i = inactive; u = inconclusive; + = active, no number. On the % scale 0 is the no-effect control and ±100 the full control effect. Not all compounds are listed; the hit share may differ from the screen's.

No.	canonical_smiles	Methyltransferases
1	COc1ccc2cc3n(c2c1)CC(C)(C(=O)NC1CCCCC1)N(Cc1ccc2c(c1)OCO2)C3=O (stereo not given)	i
2	CC(C)CC(=O)c1c(O)cc2c(c1O)C(CC(C)C)C1=C(O2)C(C)(C)C(=O)C(C)(C)C1=O (stereo not given)	i
3	CC1=C[C@@H]2[C@H]3[C@@H]4O[C@@](C)(CC[C@H]4O)[C@H]3CC(=O)[C@]23C(=O)N[C@@H](CC(C)C)[C@@H]3[C@@H]1C	i
4	CC(C)OCCCn1c(=O)c2ccccc2n2c(CCC(=O)N3CCN(c4ccc(F)cc4)CC3)nnc12	i
5	O=C(CSc1nnc2n(CCc3ccccc3)c(=O)c3ccccc3n12)Nc1cccc(F)c1	i
6	Cc1cc(C)cc(NC(=O)Cn2nc3n(C(C)C)c(=O)c4ccc(C(=O)NC5CCCC5)cc4n3c2=O)c1	i
7	CC(C)Oc1ccc(CN2C(=O)c3cc4ccccc4n3CC2(C)C(=O)NC2CCCC2)cc1 (stereo not given)	i
8	COCCNC(=O)CCc1nnc2n(Cc3ccccc3Cl)c(=O)c3ccccc3n12	i
9	O=C(Cn1nc2n(Cc3ccc(F)cc3)c(=O)c3ccccc3n2c1=O)NCc1ccccc1	i
10	O=C([C@@H]1C[C@H](F)CN1C(=O)NC1CCCCC1)N1CCc2ccccc2C1	i
11	COc1cccc(CN2CCC3(CCC3OC)CC2)c1 (stereo not given)	i
12	CC(C)CCNC(=O)c1cc2n(n1)CC(C)(C(=O)NC1CCCC1)N(C)C2=O (stereo not given)	i
13	CC(C)c1cc(CN2CCC(N3CCC(C(=O)NCc4ccccn4)CC3)CC2)[nH]n1	i
14	Cc1ccc(Cn2c(=O)c3ccccc3n3c(SCC(=O)NCc4ccccc4)nnc23)cc1	i
15	CC(C)CNC(=O)c1ccc2c(=O)n(CC(C)C)c3nn(Cc4ccccc4F)c(=O)n3c2c1	i
16	Cc1cc2c(cc3n2CC(C)(C(=O)NC2CCCCCC2)N(c2ccc(Cl)cc2)C3=O)o1 (stereo not given)	i
17	CC(=O)Nc1ccc(CN2CCC[C@H]2c2nc(-c3ccc(N4CCC(C(N)=O)CC4)nc3)no2)cc1	i
18	CCCn1ccnc1CN1CCCC12CCN(c1ccc(C(F)(F)F)cn1)CC2	i
19	C=CCN(C)C(=O)[C@@H](C)C1CC[C@@]2(C)Cc3sc(-c4cccnc4)nc3[C@@H](C)[C@@H]2[C@H]1O (stereo not given in full)	i
20	Cc1cccc(C2c3cccn3-c3sc4c(c3CN2C(=O)Nc2ccc(F)cc2)CCCC4)c1 (stereo not given)	i
21	Cc1cc(C)c(CNC(=O)c2cc(-c3cnn(C)c3C)cc3c2OCCN3C)c(=O)[nH]1	+
22	CCN(CC)CCN1C(=O)c2ccc(-c3ccco3)n2CC1(C)C(=O)NC1CCCCC1 (stereo not given)	i
23	CCCn1c(=O)c2ccc(C(=O)NC(C)C)cc2n2c(SCc3ccc(F)cc3)nnc12	i
24	CCc1cccc(N2C(=O)c3cc(C(=O)OC)nn3CC2(C)C(=O)NC2CCC(C)CC2)c1 (stereo not given)	i
25	CCOc1cc2ncc(C#N)c(Nc3ccc(F)c(Cl)c3)c2cc1NC(=O)/C=C/CN(C)C	+
26	COc1cccc(CNC(=O)c2cn3cc(-c4cccc(OC)c4)sc3n2)c1	i
27	COc1ccc(C(=O)N2CC[C@H]3NC(=O)N(c4ccc(Oc5ccccc5)cc4)C(=O)[C@H]32)cc1	i
28	CC(C)CCNC(=O)C1(C)Cn2c(ccc2-c2ccco2)C(=O)N1Cc1ccccc1Cl (stereo not given)	i
29	Cc1cc(N2CCC3(CCCN(C)C3=O)C2)c2ccccc2n1 (stereo not given)	u
30	Cc1ccc(-c2nnc([C@H]3CCN(C(=O)COc4ccccc4)C3)o2)cc1	i
31	Cc1nn2c(c1-c1ccnn1C(C)C)N(C(=O)COc1ccccc1C(N)=O)CCC2	i
32	O=C(CCC1CCCC1)N1CC(N(Cc2ccccn2)C(=O)Nc2ccccc2)C1	i
33	O=C(NCCc1ccco1)c1cc2n(n1)CCCN(Cc1ccc(Cl)cc1)C2=O	i
34	COc1cccc(CN2C(=O)c3ccc(-c4ccco4)n3CC2(C)C(=O)NC2CCCC2)c1 (stereo not given)	i
35	CCOc1cccc(C2c3cccn3-c3sc4c(c3CN2C(=O)NC2CCCC2)CCCC4)c1 (stereo not given)	i
36	Cc1ccc(C)c(NC(=O)N2CCn3cccc3C2Cc2ccccc2)c1 (stereo not given)	i
37	C[C@@]1(O)CCN(Cc2ccc(Br)o2)C[C@H]1N1CCCC1	i
38	COc1ccc(C(=O)N2CCCC2)c(OC2CCN(C(=O)C3C=CCN3)CC2)c1 (stereo not given)	i
39	O=C(N[C@@H]1CN(C(=O)c2ccccn2)CC[C@@H]1CO)C1CC1	i
40	CCc1ccccc1N1C(=O)c2cc(-c3ccc(OC)cc3)nn2CC1(C)C(=O)NCc1ccccc1 (stereo not given)	i
41	COc1cccc(-c2nnnn2[C@H]2CO[C@H]3[C@@H]2OC[C@@H]3NC(=O)c2ccccc2)c1	i
42	CCOCCCN1C(=O)c2cc(-c3ccc(C(C)C)cc3)nn2CC1(C)C(=O)NC1CCCCC1 (stereo not given)	i
43	C=CC(C)(C)C12CC3C(=O)NC(Cc4cnc[nH]4)C(=O)N3C1Nc1ccccc12 (stereo not given)	i
44	CCN(CC)CC(O)CN1CCn2c3c(c4cc(C)ccc42)CCCC31 (stereo not given)	i
45	CN(C)Cc1cc(C[C@@H]2C[C@H](NCc3ccc(F)cc3)C2(C)C)no1	i
46	CC(C)CCn1c(=O)c2ccccc2n2c(=O)n(CC(=O)NCc3ccc(Cl)cc3)nc12	i
47	CC(=O)Nc1c2n(c3ccc(F)cc13)CC(C)(C(=O)NCCC(C)C)N(CCC(C)C)C2=O (stereo not given)	i
48	COc1ccc(NC(=O)c2ncn3c2C(=O)N(C2CC2)C(C)(C(=O)NCc2ccc(F)cc2)C3)cc1Cl (stereo not given)	i
49	CC(C)(CC(=O)O)CC(=O)N1Cc2[nH]cnc2C[C@H]1C(=O)NC1CCCCC1	i
50	CCN1C(=O)c2cc(C(=O)NCc3ccccc3Cl)nn2CC1(C)C(=O)NC1CCCC1 (stereo not given)	i
51	CCCCOC(=O)NC(=O)C1c2ccccc2Oc2ccccc21	u
52	CCn1c(=O)n(CC)c2cc(S(=O)(=O)Nc3cccc(OC)c3)ccc21	i
53	CC(C)CNC(=O)c1ccc2c(=O)n(C)c3nn(CC(=O)NC4CCCCC4)c(=O)n3c2c1	i
54	CC(=O)Nc1ccc(OCC(=O)N2CCC(C)CC2)nc1	i
55	Cc1noc(C)c1-c1cc2cc(CO)oc2c(-c2ccc([S+](C)(=O)[O-])cc2)n1	i
56	CN1C2CCC1CC(OC(c1ccccc1)c1ccccc1)C2 (stereo not given)	u
57	Cc1nn(CC(=O)NC2CCCCC2)c(=O)c2nc(C(C)C)sc12	i
58	CCCn1c(=O)c2ccc(C(=O)NC(C)CC)cc2n2c(=O)n(Cc3ccccc3F)nc12 (stereo not given)	i
59	CC(C)CN(CCN1C(=O)c2cc3occc3n2CC1(C)C(=O)NC1CCCCCC1)CC(C)C (stereo not given)	i
60	Cc1noc(C)c1CC(=O)N(C)C1CCc2nnc(C)n2CC1 (stereo not given)	i

The results go on.
No.	canonical_smiles	Methyltransferases
61	C/C=C(\C)C(=O)O[C@@H]1CC2[C@@H](CC=C3C[C@@H](O[C@H]4C[C@H](OC)[C@H](O[C@H]5C[C@H](OC)[C@H](O[C@H]6C[C@H](OC)[C@H](O[C@H]7C[C@@H](OC)[C@H](O[C@@H]8O[C@H](CO)[C@@H](O)[C@H](O)[C@H]8O)[C@@H](C)O7)[C@@H](C)O6)[C@@H](C)O5)[C@@H](C)O4)CC[C@@]32C)[C@@]2(O)CC[C@H](C(C)=O)[C@@]12C (stereo not given in full)	i
62	Cn1ncc2c(C(=O)N3CCC(C#N)CC3)cc(-c3cc(Cl)cc(Cl)c3)nc21	i
63	CC(C)=CCC[C@](C)(O[C@@H]1O[C@H](CO[C@@H]2O[C@@H](CO)[C@H](O)[C@H]2O)[C@@H](O)[C@H](O)[C@H]1O)[C@H]1CC[C@]2(C)[C@@H]1[C@H](O)C[C@@H]1[C@@]3(C)CC[C@H](O[C@@H]4O[C@H](CO)[C@@H](O)[C@H](O)[C@H]4O[C@@H]4O[C@H](CO)[C@@H](O)[C@H](O)[C@H]4O)C(C)(C)[C@@H]3CC[C@]12C	i
64	COc1ccc(C(=O)N2CC[C@H](c3nc4ccccc4n3C)C2)cc1OC	i
65	Cc1ccc(NC(=O)Cn2nc3n(C(C)C)c(=O)c4ccc(C(=O)NC(C)C)cc4n3c2=O)c(C)c1	i
66	CCC(C)NC(=O)c1ccc2c(=O)n(C(C)C)c3nn(CC(=O)Nc4ccc(F)cc4)c(=O)n3c2c1 (stereo not given)	i
67	CC1CC(C)CN(S(=O)(=O)c2ccc3c(c2)oc(=O)n3CC(=O)N2CCc3ccccc32)C1 (stereo not given)	i
68	Cc1c(Cl)cccc1NS(=O)(=O)c1ccc2[nH]c3c(c2c1)CCCC3	i
69	CCOC(=O)c1ccc(N2C(=O)CSc3c(c4ccccc4n3C)C2C(=O)NCc2ccc(F)cc2)cc1 (stereo not given)	i
70	c1ccc(-c2cc3c(cn2)NCCN(Cc2ccccn2)C3)cc1	+
71	Cc1cc(O)c(-c2ccc([C@@H](C)CN(C)C)cc2)c2c1[nH]c(=O)c1sccc12	+
72	Cc1ccc(C)c(NC(=O)Cn2c(=O)oc3cc(S(=O)(=O)N4CC(C)CC(C)C4)ccc32)c1 (stereo not given)	i

Two of these compounds, set out differently:
34. COc1cccc(CN2C(=O)c3ccc(-c4ccco4)n3CC2(C)C(=O)NC2CCCC2)c1 (stereo not given)
  Methyltransferases: i
35. CCOc1cccc(C2c3cccn3-c3sc4c(c3CN2C(=O)NC2CCCC2)CCCC4)c1 (stereo not given)
  Methyltransferases: i

Laid out differently: four of the compounds above
[68] Cc1c(Cl)cccc1NS(=O)(=O)c1ccc2[nH]c3c(c2c1)CCCC3
  Methyltransferases: i
[69] CCOC(=O)c1ccc(N2C(=O)CSc3c(c4ccccc4n3C)C2C(=O)NCc2ccc(F)cc2)cc1 (stereo not given)
  Methyltransferases: i
[70] c1ccc(-c2cc3c(cn2)NCCN(Cc2ccccn2)C3)cc1
  Methyltransferases: +
[71] Cc1cc(O)c(-c2ccc([C@@H](C)CN(C)C)cc2)c2c1[nH]c(=O)c1sccc12
  Methyltransferases: +

The results go on.
No.	canonical_smiles	Methyltransferases
73	OC[C@H]1O[C@@H](OCc2ccccc2)[C@H](O[C@@H]2OC[C@@H](O)[C@H](O)[C@H]2O)[C@@H](O)[C@@H]1O	i
74	Cn1cc(Nc2ccc(Cl)cc2)c2nc(CN3CC[S+](=O)([O-])CC3)cn2c1=O	i
75	Cc1cnc(CC2CCN(C(=O)Cc3cccc(F)c3)CC2)n1CC1CC1	u
76	COc1ccc(CNC(=O)c2cc3n(n2)CC(C)(C(=O)NCc2ccccc2)N(C)C3=O)c(OC)c1 (stereo not given)	i
77	O=C(N[C@H](C1CCNCC1)C1CC(O)C1)c1ccc2nccnc2c1 (stereo not given in full)	+
78	CCOCCCN1C(=O)c2cc(-c3ccccc3)nn2CC1(C)C(=O)NCc1ccccc1 (stereo not given)	i
79	Cc1ccc(-c2nc3cnccn3c2NCCC(=O)O)cc1	i
80	CCCCOc1cc(CC2CNC(=O)N2)ccc1OC (stereo not given)	i
81	CCc1cc2c(cc3n2CC(C)(C(=O)NC2CCCCCC2)N(Cc2ccco2)C3=O)s1 (stereo not given)	i
82	CNC1=C(c2ccc(F)cc2)C(=O)N(Cc2ccccc2)C1	i
83	COC(=O)c1cc2n(n1)CC(C)(C(=O)NC1CCC(C)CC1)N(Cc1ccc(OC(C)C)cc1)C2=O (stereo not given)	i
84	CCCn1c(=O)c2ccccc2n2c(=O)n(CC(=O)NCc3ccccc3Cl)nc12	i
85	CCOCCCNC(=O)C1c2c(n(C)c3ccccc23)SCC(=O)N1Cc1ccc(C)cc1 (stereo not given)	i
86	Cc1ccc(C2(COC(=O)C(C)C)CO2)c(OC(=O)C(C)C)c1 (stereo not given)	i
87	O=C(c1ccccc1)N1CCCN(c2nc3ncccc3o2)CC1	i
88	COc1ccc(NC(=O)CCc2nnc3n(CC(C)C)c(=O)c4ccccc4n23)cc1OC	i
89	NC(=O)NCCCC(NC(=O)Cc1ccccc1)C(=O)O (stereo not given)	i
90	COc1ccc(-c2cc3n(n2)CC(C)(C(=O)NCc2ccccc2)N(Cc2cccc(OC)c2OC)C3=O)cc1 (stereo not given)	i
91	CCCn1c(=O)c2ccc(C(=O)NC(C)CC)cc2n2c(=O)n(Cc3ccc(F)cc3)nc12 (stereo not given)	i
92	O=C(Cc1cccnc1)N1CCC2(CC1)CC(CCOc1ccc(F)cc1)CCO2 (stereo not given)	i
93	CC1CCCCC1NC(=O)C1(C)Cn2c(nc3ccccc32)C(=O)N1Cc1ccccc1Cl (stereo not given)	i
94	C=C1CC[C@@H]2[C@](C)(CO[C@@H]3O[C@H](CO)[C@@H](O)[C@H](O)[C@H]3O)CCC[C@@]2(C)[C@@H]1CCC1=CCOC1=O	i
95	O=C(Cn1ccnc1)N1CCC(N2C(=O)C3(CCCC3)C2c2ccccc2)CC1 (stereo not given)	i
96	CC(C(=O)Nc1nccs1)N1CCN(c2nccnc2C#N)CC1 (stereo not given)	i
97	NC(=O)CN1CC2(CCC1=O)CCN(C[C@@H](O)CO)CC2	i
98	Cc1cc(F)ccc1C(=O)N1CCn2nc(Cc3ccccc3)cc2C1	i
99	COc1ccc(-c2cc3n(n2)CC(C)(C(=O)NCc2ccccc2)N(c2ccc(OC)cc2)C3=O)cc1 (stereo not given)	i
100	CCC(C)NC(=O)c1ccc2c(=O)n(Cc3ccccc3)c3nn(Cc4cccc(F)c4)c(=O)n3c2c1 (stereo not given)	i
